# NS1 inh: inhibitors of influenza NS1 protein function. S. cerevisiae slowed by influenza A NS1, growth recovery by OD600. Potency, µM (highest dose often 46.1 µM), for the others: at the top dose activity, positive = more growth. 270,000 compounds, 0.4% hits. AID 2326; also: actives are rising curves; nearly all actives have a fitted effect of over 50% in size
#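 Growth recovery, yeast-based: influenza A NS1 expressed in S. cerevisiae causes slow growth, and suppressors are detected by OD600. The parent strain without NS1 is used as positive control.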
# RE007 growth inh: less growth of the S. pombe RE007 Vpr strain. S. pombe RE007 Vpr strain, BacTiter-Glo ATP luminescence, 24 h; control for the full effect not named in the record. 360,000 compounds, 0.21% hits. Potency, µM (top dose mostly 92.2 µM), for inactives: at the highest dose activity change, negative = less growth. AID 651644; active = well fitted falling curve with a large enough effect; inconclusive = small, poorly fitted or top-dose-only effect; inactive = no such curve, though single readings can be large or run the other way;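 also: % is scaled to controls: 0 for no effect and ±100 for the full control effect; nearly all actives have a fitted effect of over 50% in size; the assay follows cell death caused by Vpr and the record does not say whether a fall means rescue or toxicity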
#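 Fission yeast RE007 carrying one integrated HIV-1 vpr copy, seeded at OD 0.01 in PMG+AL medium with 23 nL pinned compound. Grown 24 h at 30 degrees; viability read by BacTiter-Glo luminescence after 5 min.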
# Marburg entry inh: blocks Marburg virus binding to or entry into cells. Marburg virus pseudotyped entry inhibition, cell reporter; control for the full effect not named in the record; about a third of the inactives were read at about 46 µM. Potency, µM (series often up to 37.8 µM), without a hit: at the highest dose activity change, negative = inhibition, actives largely listed as inhibitors. 300,000 compounds, 1.8% hits. AID 540276; active = well fitted inhibition curve with a large enough effect; inconclusive = small, poorly fitted or top-dose-only effect, or effect the other way; inactive = flat fitted curve, though single readings scatter; tested in HEK293 cells; about a fifth of its hits are not listed in these tables; also: % is scaled to controls: 0 for no effect and ±100 for the full control effect; luciferase read-out
# 2A StopGo: lowers the luciferase signal of an FMDV 2A StopGo reporter; human cells with a luciferase reporter of 2A StopGo recoding; control for the full effect not named in the record; 410,000 compounds, 1.2% hits; Potency, µM (titrated, usually from 57.9 µM), for inactives: at the highest dose signal change, negative = less light; AID 1159524; active = well fitted falling curve with a large enough effect; inconclusive = small, poorly fitted or top-dose-only effect; inactive = no such curve, though single readings can be large or run the other way; tested in HEK293T cells; also: % is scaled to controls: 0 for no effect and ±100 for the full control effect; nearly all actives have a fitted effect of over 45% in size; luciferase light after 4 h
# Cruzain Triton: blocks cruzain activity in presence of Triton detergent; P25779; purified cruzain, Z-FR-AMC fluorescence, 0.01% Triton; Potency, µM, without a hit: max response, negative = inhibition, most hits filed as inhibitors; 200,000 compounds, 0.43% hits; active = well fitted curve in the direction sought with a large enough effect; inconclusive = small, poorly fitted or top-dose-only effect, or another doubt; inactive = no such curve, though single readings can be large; an effect the other way counts as inactive or inconclusive;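 also: plate controls were neutral wells for no effect and buffer without enzyme for full effect; nearly all actives have a fitted effect of over 40% in size; top concentration of the series not given in the record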
# Target sequence (P25779 123-467 limits assumed): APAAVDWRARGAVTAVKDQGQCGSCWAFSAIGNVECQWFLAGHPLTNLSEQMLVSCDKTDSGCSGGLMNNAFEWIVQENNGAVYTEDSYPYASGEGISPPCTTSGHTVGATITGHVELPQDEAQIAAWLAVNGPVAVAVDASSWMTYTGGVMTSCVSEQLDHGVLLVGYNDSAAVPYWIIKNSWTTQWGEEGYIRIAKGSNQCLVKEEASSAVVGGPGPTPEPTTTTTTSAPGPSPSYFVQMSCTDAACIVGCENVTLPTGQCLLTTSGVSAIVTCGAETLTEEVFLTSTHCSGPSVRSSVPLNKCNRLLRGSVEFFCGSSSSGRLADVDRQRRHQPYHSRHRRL
#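 Cruzain (1.5 nM) preincubated 15 min at RT with compound in 100 mM sodium acetate pH 5.5, 5 mM DTT, 0.01% Triton X-100. Reaction started with 2 uM Z-FR-AMC; AMC fluorescence (ex 360/em 450 nm) change over 60 s gave rate.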
# SARS PLpro yeast: inhibitors of SARS-CoV papain-like protease in yeast. S. cerevisiae expressing SARS-CoV PLpro, growth rescue; control for the full effect not named in the record. Potency, µM (titrated, usually from 32.9 µM), without a hit: at the highest dose activity, positive = growth rescue. 330,000 compounds, 0.19% hits. AID 485353; also: 0% is about no effect; nearly all actives have a fitted effect of over 55% in size; growth read by luminescence after 48 h
# Cruzain inh noDet: inhibitors of Trypanosoma cruzi cruzain without detergent; Potency, µM, without a hit: max response, negative = inhibition, actives largely listed as inhibitors; P25779; 200,000 compounds, 2.3% hits; purified cruzain, Z-FR-AMC fluorescence, no detergent; AID 1476; active = well fitted curve in the direction sought with a large enough effect; inconclusive = small, poorly fitted or top-dose-only effect, or another doubt; inactive = no such curve, though single readings can be large; an effect the other way counts as inactive or inconclusive;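 also: plate controls were enzyme without inhibitor for no effect and buffer without enzyme for full effect; nearly all actives have a fitted effect of over 40% in size; top concentration of the series not given in the record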
#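 Purified cruzain at 1.5 nM, pre-incubated 15 min with compound at room temperature in 100 mM sodium acetate pH 5.5, 5 mM DTT, 0.00005% Triton X-100. Reaction started with 2 uM Z-FR-AMC; AMC fluorescence increase over 60 s gives rate.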
# Lassa entry inh: inhibitors of Lassa virus binding or cell entry | Lassa virus pseudotype entry inhibition, cell reporter; control for the full effect not named in the record | Potency, µM (highest dose often 37.9 µM), for the others: at the highest dose activity change, negative = inhibition, actives largely listed as inhibitors | 300,000 compounds, 1.2% hits | AID 540256; active means well fitted inhibition curve with a large enough effect; inconclusive means small, poorly fitted or top-dose-only effect, or effect the other way; inactive means flat fitted curve, though single readings scatter; tested in HEK293 cells; also: % is scaled to controls: 0 for no effect and ±100 for the full control effect; nearly all actives have a fitted effect of over 50% in size; luciferase read-out
# An asterisk follows results filed as active; ? = inconclusive; . = no result given; [ ] = dose if it differs, or a comment. Unless noted, calls follow the shape of the dose curve; as a rule, active means well fitted rising curve with a large enough effect; inconclusive means small, poorly fitted or top-dose-only effect; inactive means no such curve, though single readings can be large or run the other way. Potency is read from the fitted curve at half-maximal effect.
No.	mol	NS1 inh	RE007 growth inh	Marburg entry inh	2A StopGo	Cruzain Triton	SARS PLpro yeast	Cruzain inh noDet	Lassa entry inh
1	CC1CCN(C(=O)CN2C(=O)c3cccc4cccc(c34)C2=O)CC1	.	-22%	1%	-7%	.	-5%	.	-5%
2	Cc1ccc(Cn2c(=O)n(CCCCC(=O)NCc3ccccc3Cl)c(=O)c3ccccc32)cc1	.	.	?	?	-1.4%	.	-13%	?
3	Cc1ccc(NC(=O)CSCC(=O)NCc2cccc(C(F)(F)F)c2)cc1	.	-19%	-20%	-12%	.	-2%	.	3%
4	O=[N+]([O-])c1ccccc1-c1ccc(C(=S)N2CCCCC2)o1	-2%	-18%	?	64%[activator]	.	-1%	.	-12%
5	COc1ccc(O)c(C(=O)c2cnc3c(c2)c(C)nn3CCO)c1	10%	9%	19%[46.1 µM]	38%[activator]	.	0%	.	5%
6	Clc1cccc(Oc2cnns2)c1Cl	0%	-18%	28%	-16%	-1.3%	11%	-18%	7%
7	COc1cc(C)c(S(=O)(=O)NOCc2ccc([N+](=O)[O-])cc2)c(C)c1C	3%	10%	-5%	21%	.	0%	.	-14%
8	O=C(N1CCOCC1)n1cnc2ccccc21	4%	-13%	25%	.	-0.6%	7%	-4%	6%
9	COCCNC(=O)/C(C#N)=C/c1c(N2CCCCCC2)nc2ccccn2c1=O	-3%	-1%	-13%	3%	.	-1%	.	-16%
10	O=C1NCC(c2ccccc2)(c2ccccc2)C(=O)N1	.	8%	-1%	-24%	.	.	.	19%
11	CCCCCC(=O)C(=O)c1ccc(O)cc1O	-2%	-2%	.	-11%	.	-4%	.	.
12	CCN(CC)CCCN(Cc1cc2cc3c(cc2[nH]c1=O)OCO3)C(=S)Nc1ccc(OC)cc1	0%	8%	?	-20%	.	1%	.	-53%
13	CC(=O)Nc1ccc(NS(=O)(=O)c2ccc(Cl)c(C(=O)O)c2)cc1	2%	-6%	5%	16%	1.2%	1%	1%	0%
14	CCOc1cccc(C(=O)N2CCCN(C)CC2)c1	?	-15%	.	5%	.	-2%	.	.
15	Cc1ccccc1Cc1c(C)nc2c(C(=O)NCc3ccco3)cnn2c1C	-63%	3%	0%	?	-10%	-8%	-9%	-29%
16	Clc1ccc(Cl)c(-c2nn3c(COc4ccccc4)nnc3s2)c1	-92%	-16%	8%	-18%	-2.1%	-4%	-14%	?
17	CCc1ccc(NCc2cc3cc4c(cc3n(CC(=O)Nc3cccc(OC)c3)c2=O)OCO4)cc1	.	.	.	10%	-5.0%	.	25µM*	-5%[46.1 µM]
18	COC(=O)c1ccc(Cn2nc(-c3ccccc3)ccc2=O)cc1	-6%	3%	.	-11%	.	-3%	.	.
19	Cc1ccc(C)c(NC(=O)Cn2ccn(-c3ccc4c(c3)OCO4)c(=O)c2=O)c1	.	-15%	?	-5%	.	-3%	.	-6%
20	CCOC(=O)CNC(=O)C1c2ccccc2C(=O)N(c2ccc(OC)cc2)C1c1ccc(OC)cc1 (stereo not given)	-5%	-7%	-20%	12%	12%	-3%	?	?
21	COc1ccc(OC)c(-n2cnc3cc(C(=O)O)ccc32)c1	-1%	-3%	-1%	-12%	1.7%	9%	-7%	8%
22	O=S(=O)(c1ccc(F)cc1)N1CCN(CCc2ccccc2)CC1	-9%	-16%	-19%	?	.	8%	.	-10%
23	Cc1cc2c3c(c1)C1(SCC(=O)N1c1ccc(F)cc1)C(=O)N3C(C)(C)CC2C (stereo not given)	9%	5%	?	?	-8.6%	-13%	7%	0%
24	Cc1ccc(-c2nc3ncccc3o2)cc1NC(=O)c1ccc(-c2ccc(Cl)cc2)o1	.	.	?	11%	-1.2%	.	-5%	8%[46.1 µM]
25	COc1cccc(C(=O)C2CCCN(Cc3cccc(C)n3)C2)c1 (stereo not given)	1%	-6%	.	-17%	.	1%	.	.

# Reformatted screen by screen: entries from further up
8) O=C(N1CCOCC1)n1cnc2ccccc21
16) Clc1ccc(Cl)c(-c2nn3c(COc4ccccc4)nnc3s2)c1

assay / entry | 8 | 16
NS1 inh | 4% | -92%
RE007 growth inh | -13% | -16%
Marburg entry inh | 25% | 8%
2A StopGo | . | -18%
Cruzain Triton | -0.6% | -2.1%
SARS PLpro yeast | 7% | -4%
Cruzain inh noDet | -4% | -14%
Lassa entry inh | 6% | ?

# Look-ups from above.
# Entry for compound 6 in NS1 inh: 0%
# Entry for compound 10 in Lassa entry inh: 19%

# Further records.
No.	mol	NS1 inh	RE007 growth inh	Marburg entry inh	2A StopGo	Cruzain Triton	SARS PLpro yeast	Cruzain inh noDet	Lassa entry inh
26	COC(=O)C1=CN(CC2CCCO2)C=C(C(=O)OC)C1c1ccsc1 (stereo not given)	6%	0%	11%	-20%	-17%	8%	0%	-2%
27	COc1ccc(-c2cccc(NS(=O)(=O)c3cccs3)c2)nn1	.	.	.	58%[activator]	-1.5%	.	-8%	-1%[46.1 µM]
28	COC(=O)c1ccc(C(=O)OC)c(NC(=O)Oc2ccccc2)c1	-8%	-15%	11%	-5%	-4.7%	-14%	-18%	14%
29	Cc1ccc2nc(NC(=O)c3cc(-c4ccco4)nc4ccccc34)sc2c1	2%	-4%	-25%	?	-8.9%	-7%	?	?
30	O=C(NC1CCCCCC1)C1CCN(S(=O)(=O)c2ccccc2)CC1	-4%	-1%	16%	-9%	1.8%	1%	8%	0%
31	O=C(Cc1ccc(Cl)cc1Cl)NCC1(N2CCOCC2)CCCCC1	.	4%	12%[46.1 µM]	15%	.	-1%	.	0%
32	NC(=O)C1CCN(/C=C2\C(=O)NC(=O)N(Cc3ccco3)C2=O)CC1	12%	35%	3%[46.1 µM]	-15%	.	0%	.	3%
33	CC(C)(C)c1ccc(C(=O)NCC2CCCN2S(=O)(=O)c2ccccc2)cc1 (stereo not given)	.	14%	?	1%	.	-8%	.	?
34	O=C(O)c1cccc(-n2nnnc2SCc2ccccn2)c1	-2%	-1%	2%	-16%	7.2%	8%	-1%	1%
35	C/C(=N\NC(=O)c1cccs1)c1ccc(C(=O)O)s1	1%	-15%	.	0%	.	0%	.	.
36	Cc1oc(-c2cccs2)nc1CSCC(=O)NC1CC1	5%	-3%	20%[46.1 µM]	-13%	0.4%	4%	-5%	0%
37	Clc1cccc(N2CCN(c3ncnc4c3nc3n4CCCCC3)CC2)c1	.	.	2.8µM*	11µM*	-0.4%	.	-6%	?
38	S=C(NCC(c1cccnc1)N1CCOCC1)NC1CCCCC1 (stereo not given)	.	15%	1%[46.1 µM]	5%	.	5%	.	6%[46.1 µM]
39	CSc1ccccc1C(=O)NCC(c1ccco1)N1CCCCC1 (stereo not given)	.	-25%	?	-2%	.	-1%	.	-9%
40	O=C(OCc1ccc([N+](=O)[O-])cc1)C1CC(=O)N(Cc2ccccc2)C1 (stereo not given)	.	-2%	6%[46.1 µM]	1%	.	7%	.	0%[46.1 µM]
41	Cc1cc(C)cc(NC(=O)c2cc(S(=O)(=O)NCc3ccco3)ccc2F)c1	-33%	2%	?	16%	-4.1%	1%	-1%	-15%
42	Cc1cc(C(=O)Cn2ncc(Cl)c(Cl)c2=O)c(C)n1CC(F)(F)F	8%	-4%	?	?	-5.2%	-43%	-10%	?
43	COc1cc(C(C2=C(O)CC(C)(C)CC2=O)C2C(=O)CC(C)(C)CC2=O)cc(OC)c1OC (stereo not given)	.	2%	0%[46.1 µM]	-10%	.	-3%	.	-18%
44	O=c1oc2ccc(Br)cc2cc1-c1csc(-c2ccccc2)n1	.	.	.	-7%	1.5%	.	-5%	?
45	COc1ccc(Cc2nc(-c3ccc(Br)cc3)no2)cc1	3%	-12%	-7%	.	-1.6%	-1%	6%	12%
46	O=S(=O)(Cc1ccccc1)C(CCCc1ccccc1)S(=O)(=O)Cc1ccccc1	.	2%	-45%	-4%	.	.	.	?
47	O=C(CSc1nncn1-c1ccccc1)NC1CCCc2ccccc21 (stereo not given)	-2%	1%	?	1%	-2.9%	11%	9%	-6%
48	COc1ccc(S(=O)(=O)n2c([N+](=O)[O-])cnc2C)c(C)c1C	21%	-24%	17%[46.1 µM]	-3%	.	-5%	.	-4%[46.1 µM]
49	CCCN(CC(=O)Nc1ccccc1C)C(=O)CCCc1c[nH]c2ccccc12	.	3%	?	9%	.	-5%	.	?
50	O=C(O)CCC(=O)NCc1ccc(F)cc1	2%	-5%	12%	-3%	5.7%	-1%	0%	13%

# The results go on:
No.	mol	NS1 inh	RE007 growth inh	Marburg entry inh	2A StopGo	Cruzain Triton	SARS PLpro yeast	Cruzain inh noDet	Lassa entry inh
51	Cc1ccc(-c2nc(C(Cl)Cl)c3ccccc3n2)cc1	5%	-10%	.	39%[activator]	.	0%	.	.
52	O=S(=O)([N-]c1nc2ccccc2nc1-[n+]1ccc(Cc2ccccc2)cc1)c1ccc(Br)s1	6%	-5%	?	18%	.	-1%	.	?
53	CCN(CC)S(=O)(=O)c1cccc(C(=O)NC(Cc2c[nH]c3ccccc23)c2nnc3n2CCCCC3)c1 (stereo not given)	0%	-7%	0%	7%	-2.4%	-1%	?	?
54	Cc1ccc2[nH]c(=O)c(CN(CCc3ccccc3)C(=O)N3CCOCC3)cc2c1	-12%	8%	14%	-9%	0.6%	0%	19%	-2%
55	CCCCn1c(N)c(N(CCOC)C(=O)CSc2n[nH]c(-c3ccc(OC)cc3)n2)c(=O)[nH]c1=O	-6%	-8%	?	10%	.	-8%	.	-9%
56	O=S(=O)(NCCO)c1ccc2c(c1)Cc1cc(S(=O)(=O)NCCO)ccc1-2	2%	0%	6%	-5%	.	-3%	.	26%
57	COc1ccc(OC)c(NC(=O)CCC(=O)Nc2nnc(C(C)C)s2)c1	-19%	-1%	5%[46.1 µM]	1%	.	1%	.	3%[46.1 µM]
58	COc1cc(C(=O)Nc2cc3c(cc2N2CCCCC2)n(C)c(=O)n3C)cc(OC)c1OC	2%	?	.	-19%	.	4%	.	.
59	COc1cccc2sc(N(C)c3ccccc3)nc12	-21%	-1%	?	-3%	-2.1%	8%	4%	?

# Bioassay records (PubChem)
